# GIRK2 activ = activators of human GIRK2 potassium channels; G protein-activated inward rectifier potassium channel 2 (Homo sapiens), P48051; HEK293-GIRK2 thallium flux, Thallos fluorescence; calls only for hits at 25 µM; 63,000 tested, 0.05% active;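 active means among the strongest 0.2% of first-round signals and kept after retests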;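 further: first round at about 10 µM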
# Target sequence (P48051 whole entry, looked up): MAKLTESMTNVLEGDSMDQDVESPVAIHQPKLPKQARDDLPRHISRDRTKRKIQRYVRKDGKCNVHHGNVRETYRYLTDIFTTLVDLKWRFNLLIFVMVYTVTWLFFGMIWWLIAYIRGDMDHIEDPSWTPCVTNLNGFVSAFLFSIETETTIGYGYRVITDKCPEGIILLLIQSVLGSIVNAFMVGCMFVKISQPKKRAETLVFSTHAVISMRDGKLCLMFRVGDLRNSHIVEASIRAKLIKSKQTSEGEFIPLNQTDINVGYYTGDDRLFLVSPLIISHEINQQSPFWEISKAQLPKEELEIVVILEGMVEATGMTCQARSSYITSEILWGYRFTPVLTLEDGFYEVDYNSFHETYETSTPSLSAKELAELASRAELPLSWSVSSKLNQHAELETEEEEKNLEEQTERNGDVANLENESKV
# Calls only; i = inactive.
GIRK2 activ | Compound
i | CC(=O)Nc1ccc2c(C3=C(c4cn(C)c5ccccc45)C(=O)NC3=O)cn(C)c2c1
i | Cc1nn(C)cc1S(=O)(=O)NC(C)CCc1ccccc1 (centres undefined)
i | O=C(CC1=NS(=O)(=O)c2ccccc2N1)N1CCN(C(c2ccccc2)c2ccccc2)CC1
i | CC(C)NC(=O)Nc1ccc(CN2CCN(c3ccccn3)CC2)cc1
i | CCSc1ccccc1C(=O)N1CC(c2nc(-c3cccs3)no2)C1
i | O=C(C(c1ccccc1)c1ccccc1)N(Cc1ccsc1)CC(F)(F)F
i | COc1c[nH]c(C(=O)Nc2ccc(NC(C)=O)cc2)cc1=O
i | CCCc1nnsc1C(=O)Nc1ccc2c(c1)C(=O)N(C)CCO2
i | O=C(NCC1CCN(Cc2ccsc2)CC1)Nc1ccc2c(c1)OCO2
i | O=C(Nc1ccccc1)OC1CCCC(NC(=O)c2cc3ccccc3oc2=O)C1 (centres undefined)
i | CCOC(=O)CC1=CC(=O)N(CC(=O)NCc2ccc(OC)cc2)c2cc(C)c(C)cc2N1
i | CCCCCCCCCCCCCCP(=O)(O)O
i | COc1ccc(-n2c(C)cn3c4c(=O)n(CCN5CCOCC5)c(=O)n(C)c4nc23)cc1
i | COc1cccc(C(=O)Nc2cc(-n3c(C)nc4ccccc4c3=O)ccc2F)c1
i | O=c1n(CCNS(=O)(=O)c2ccc3c(c2)OCCO3)nc(C2CC2)n1-c1ccccc1
i | CC(C)(C)C(O)CCNC(=O)CCc1ccccc1 (centres undefined)
i | COc1ccccc1COc1cc(NC(=O)c2snnc2C)ncn1
i | CC(C)C(=O)N1CCCc2ccc(NC(=O)C(=O)NCCC(O)c3cccs3)cc21 (centres undefined)
i | C=C1C(=O)OC2C=C(C)CCC=C(C(=O)O)CCC=C(C)CCC12 (centres undefined)
i | CC1CCCCC12NC(=O)N(CC(=O)NCCc1ccccc1)C2=O (centres undefined)
i | COc1ccc(CNc2nccn(-c3ccc(Cl)cc3)c2=O)cc1OC
i | O=C(Nc1nc(-c2cccnc2)cs1)c1cc2n(n1)CCCO2
i | CCn1c(-c2nonc2N)nc2c(C#CC(C)(C)O)ncc(OC[C@@H]3CCCN3)c21
i | O=C(NCC1(CO)CC1)C(=O)Nc1ccccc1Cl
i | COc1cccc2cc(C(=O)Nc3cccc(-c4cn5c(C)cccc5n4)c3)c(=O)oc12
i | COc1cc(NC(=O)CSc2nccnc2N2CCN(c3ccccc3OC)CC2)cc(OC)c1
i | COc1cc(Nc2c(C(=O)N3CCCCC3C)cnc3nc(C)ccc23)cc(OC)c1 (centres undefined)
i | Cc1cc(C(F)(F)F)nc(CCNC(=O)/C=C/c2ccccc2)n1
i | COc1ccc2c(c1)c(CC(=O)NCCCCNC(=O)c1ccc(F)cc1)c(C)n2C(=O)c1ccc(Cl)cc1
i | COc1ccc(SCC2CCN(C(=O)CSCc3ccccc3)CC2)cc1
i | O=C1COc2ccccc2CN1c1ccc(F)cc1Br
i | COc1cccc(COc2coc(C(=O)NC3CCCC3)cc2=O)c1
i | Cc1sc2ncnc(SCC(=O)Nc3nsc(-c4ccc(Cl)cc4)n3)c2c1C
i | Nc1ccc2c(c1)CCCN2S(=O)(=O)c1ccccc1
i | COc1cc2[nH]c3c(=O)n(CCC(=O)NCc4ccc(Cl)cc4)cnc3c2cc1OC
i | O=C(Nc1nc(-c2cccnc2)cs1)C1CCCCN1S(=O)(=O)c1cccs1 (centres undefined)
i | CCOc1ccc(C2=NS(=O)(=O)c3cc(S(=O)(=O)N4CCOCC4)ccc3N2)cc1OCC
i | O=C(Cn1cccc(S(=O)(=O)N2CCCC2)c1=O)N1CCc2ccccc21
i | Cc1nc(OCC(=O)Nc2cnc(N3CCCC3)nc2)cc(-n2cccn2)n1
i | CCNC(=O)c1cc2c(=O)n3ccccc3nc2n(C)c1=N
i | Nc1nc(SCc2ccc3c(c2)OCO3)n[nH]1
i | O=C(NCCC(O)c1ccoc1)C(=O)Nc1ccc(F)c(Cl)c1 (centres undefined)
i | Cc1cc(Nc2ccccc2)nc(N2CCN(C(=O)c3ccc4c(c3)OCO4)CC2)n1
i | O=C1CN(C(=O)CCc2csc(NC(=O)c3ccc[nH]c3=O)n2)CCN1
i | COc1ccc(OC)c(NC(=O)Cn2ncn3nc(-c4ccc(C)c(C)c4)cc3c2=O)c1
i | COc1ccc(OCc2ccc(-c3nc(C#N)c(NCc4ccco4)o3)o2)cc1
i | N#Cc1ccc(OC2CCN(C(=O)c3c(F)cccc3F)CC2)nc1
i | COc1ccc(-c2noc(Cn3c(=O)n(-c4cc(C)ccc4C)c(=O)c4ccccc43)n2)cc1OC
i | CCCCc1ccc(N2CC(C)Cn3c2nc2c3c(=O)n(CCOC)c(=O)n2C)cc1 (centres undefined)
i | Cc1nnc(SCc2ccc3c(c2)OCO3)s1
i | COc1ccc(NC(=O)c2c(O)c3cnn(-c4cccc(C)c4)c3[nH]c2=O)cc1OC
i | O=C1c2cccc3c(Nc4ccccc4)ccc(c23)C(=O)N1c1ccccc1
i | O=C(NCC(F)(F)F)c1cncc(Br)c1
i | CC(=O)c1cccc(S(=O)(=O)N2CCC(CSc3nccn3C)CC2)c1
i | Cc1cc(OCCCC(=O)NCC(C)C)ccc1Cl
i | CCc1cccc2sc(N(CC3CCCO3)C(=O)COc3ccc(F)cc3)nc12 (centres undefined)
i | CCOc1ccc2cccc(NC(=O)c3ccc(Cl)s3)c2n1
i | Cc1cc(NC(=O)CCc2ccccc2)n(-c2nc(-c3ccc4c(c3)OCO4)cs2)n1
i | O=C(C1CC(=O)N(c2ccc(Cl)cc2)C1)N1CCC(CSC2=NCCS2)CC1 (centres undefined)
i | Cc1ccc(C)c2sc(OC3CCN(C(=O)c4cccc(C#N)c4)CC3)nc12

# (further entries)
GIRK2 activ | Compound
i | COc1ccccc1N1CCN(C(=O)CSc2nc(C)cs2)CC1
i | Cc1ccc(CSc2nc3c(c(=O)[nH]2)CN(Cc2ccccc2)CC3)cc1C
i | COc1cc(/C=C/C(=O)OC[C@H]2O[C@@H](O[C@]3(COC(=O)/C=C/c4ccc(O)cc4)O[C@H](COC(=O)/C=C/c4ccc(O)cc4)[C@@H](O)[C@@H]3OC(=O)/C=C/c3ccc(O)cc3)[C@H](O)[C@@H](O)[C@@H]2O)ccc1O
i | Cc1nnc(C2CCCN(C(=O)c3cnccn3)C2)s1 (centres undefined)
i | O=C(Cc1ccc(Cl)cc1)NNC(=O)c1ccc(=O)n(Cc2ccc(Cl)cc2)c1
i | Cc1cc(C)c(NC(=O)COc2cc(C)nc(N3CCN(c4ccccc4)CC3)n2)c(C)c1
i | Cc1cc(NS(=O)(=O)c2ccc(N/C=C(/C#N)c3nc(-c4ccccc4)cs3)cc2)no1
i | CCn1nnc2c(N3CC(C(=O)NCc4nc(C)no4)C3)ncnc21
i | Cn1nc(-c2ccc(F)cc2)cc1C(=O)NCC1(O)CCOc2ccccc21 (centres undefined)
i | CC(C)S(=O)(=O)c1ccc(CC(=O)N2CCC(CSc3ccccn3)CC2)cc1
i | CC(C)N(CC#CCNC(=O)c1c(F)cccc1F)C(C)C
i | O=C(CSc1nnc2scc(-c3ccc(Cl)cc3)n12)NCC1CCCO1 (centres undefined)
i | CCN(C(=O)Cn1cnc2ccccc21)c1ccccc1
i | CC(NC(=O)/C(C#N)=C1\N=C(NC(=O)c2ccco2)c2ccccc21)c1ccccc1 (centres undefined)
i | CC(C)(CO)NC(=O)Cc1ccc(NC(=O)/C=C/c2ccco2)cc1
i | COc1ccccc1C(O)Cn1cc(C(=O)N2CCc3ccccc3C2)nn1 (centres undefined)
i | CN(c1ccc(NC(=O)NCCN2CCOCC2)cc1)c1ccnc(Nc2ccc(CS(C)(=O)=O)cc2)n1
i | CNC(=O)Cc1ccc(NC(=O)c2ccc3nsnc3c2)cc1
i | Cc1cc2c(=O)n(C)c(SCC(=O)Nc3cccc(O)c3)nc2s1
i | O=C(Cn1cnc2c(cnn2CCO)c1=O)Nc1ccc(OC(F)(F)F)cc1
i | O=C(CN1CCN(c2ccc(F)c(F)c2)C1=O)N1CCN(c2ccccc2Cl)CC1
i | CCOc1ccc(-c2ccc(=O)n(CCNS(=O)(=O)c3ccc(F)cc3)n2)cc1
i | O=C(Cn1cccc(S(=O)(=O)N2CCCCC2)c1=O)NC1CCCC1
i | Cc1ccc(NC(=O)Cn2cccc(S(=O)(=O)N3CCOCC3)c2=O)cc1C
i | O=C1CC(NS(=O)(=O)Cc2ccccc2)CN1C1CC1 (centres undefined)
i | O=c1[nH]c2cccnc2[nH]c1=O
i | CC(C)Sc1ccc(CC(=O)Nc2ccc3cn[nH]c3c2)cc1
i | O=C(C1CCC1)N1CCN(c2nc3c(C(F)(F)F)cccc3s2)CC1
i | COc1ccc(-c2noc(C3CC(=O)N(c4cc(C)cc(C)c4)C3)n2)cc1OC (centres undefined)
i | CCOC(=O)N1CCC(NC(=O)C2CCN(c3ncnc4c3oc3ccccc34)CC2)CC1

# Copied from the results shown, 2 compounds:
GIRK2 activ | Compound
i | COc1ccc(-c2noc(C3CC(=O)N(c4cc(C)cc(C)c4)C3)n2)cc1OC (centres undefined)
i | CCOC(=O)N1CCC(NC(=O)C2CCN(c3ncnc4c3oc3ccccc34)CC2)CC1

# (cont.)
GIRK2 activ | Compound
i | CC(C)c1ccc(S(=O)(=O)c2cnc(SCC(=O)Nc3ccc(F)cc3F)[nH]c2=O)cc1
i | COc1ccccc1CNC(=O)c1cc2c(=O)n(C)c(=O)n(C)c2n1Cc1ccccc1
i | COc1cc(C2C(C(=O)c3cccs3)=C(O)C(=O)N2c2cc(C)on2)ccc1O (centres undefined)
i | O=C(CSCc1ccccc1)NC1CCCC(OC(=O)Nc2ccccc2)C1 (centres undefined)
i | N#Cc1ccc(NC(=O)Cn2nc3c4cc(-c5ccc(Cl)cc5)nn4ccn3c2=O)cc1
i | CCCCOc1ccc(S(=O)(=O)Nc2cnc(N3CCOCC3)nc2)cc1
i | Cc1csc(SCC2CCN(C(=O)C(=O)c3c[nH]c4ccccc34)CC2)n1
i | O=C(CNS(=O)(=O)c1c(Cl)cccc1Cl)N1CCCC1
i | CCOc1ccc(-c2ccc(N3CCN(C(=O)c4ccc5ncsc5c4)CC3)nn2)cc1
i | O=C(/C=C/c1cccc(S(=O)(=O)Nc2ccccc2)c1)NO
i | CC(C)S(=O)(=O)c1cccc(C(=O)N(Cc2ccncc2)c2nc3ccc(F)cc3s2)c1
i | COCCN(Cc1ccsc1)C(=O)NCc1cccc2ccccc12
i | COc1ccc(C)cc1S(=O)(=O)NCCNc1ccc(Nc2ccccn2)nn1
i | Cc1csc(COc2ccc(C(=O)N3CCN(c4ccccc4F)CC3)cc2)n1
i | O=C(CCCn1cnc(-c2ccc(F)cc2)cc1=O)Nc1ccc(-c2cn3c(n2)SCC3)cc1
i | CCOC(=O)c1sc(NC(=O)c2ccc3ncsc3c2)cc1C
i | CC(C)S(=O)(=O)c1ccc(CC(=O)N2CCC(c3ccccc3)C2)cc1 (centres undefined)
i | COc1ccc(CC(=O)c2ccc(O)c(C)c2O)cc1
i | O=C(NC1CC1)c1ccc(Cn2c(=O)[nH]c3ccccc3c2=O)cc1
i | CC(C)c1nnc(SCC(=O)NCc2ccco2)c2c1cnn2-c1ccccc1
i | COC(=O)C1C(OC(=O)c2ccccc2)C(OC(=O)c2ccccc2)C2C(C(=O)O)=COC(OC3OC(CO)C(O)C(O)C3O)C12 (centres undefined)
i | CC(=O)c1ccc(S(=O)(=O)N2CC(c3nc(-c4ncccn4)no3)C2)cc1
i | COc1ccccc1OCC#CCNC(=O)c1ccccc1Br
i | COC(=O)CC1=CC(SCc2ccc(OC)c(F)c2)=Nc2ccccc2N1
i | CCc1nc2sc(C(c3ccccc3F)N3CCN(Cc4ccccc4)CC3)c(O)n2n1 (centres undefined)
i | COc1ccc(-c2nc(-c3cn(CC(=O)Nc4cc(Cl)ccc4C)cn3)no2)cc1
i | COc1cccc2cc(C(=O)NCC3CCC(c4nc5ccccc5[nH]4)CC3)oc12 (centres undefined)
i | COc1ccc(CCC(=O)N(CCc2cccs2)Cc2ccco2)cc1
i | O=C(NCCC(O)c1ccccc1)C(=O)Nc1ccc(OC(F)(F)F)cc1 (centres undefined)
i | COc1ncccc1C(=O)Nc1nnc(-c2cc(C)oc2C)o1
i | O=C(CCCc1ccccc1)Nc1ccc(-n2nnn(CC(=O)NC3CC3)c2=O)cc1
i | O=C(Cc1cccs1)Nc1nc(C(=O)NCCn2nc(-c3ccco3)ccc2=O)co1
i | O=C(Nc1ccc2c(c1)OCO2)N1C2CCC1COC2
i | C=C(C)COc1ccc(-c2nc(N)ncc2-c2ccccc2OC)c(O)c1
i | O=C(c1ccc(S(=O)(=O)N2CCCC2)cc1)N1CC(c2nc(-c3cnccn3)no2)C1
i | COc1ccccc1CN1CCc2nc(SCC(=O)Nc3ccc(F)cc3F)[nH]c(=O)c2C1

# Molecules above with a Cl atom:
GIRK2 activ | Compound
i | COc1ccc(CNc2nccn(-c3ccc(Cl)cc3)c2=O)cc1OC
i | O=C(NCC1(CO)CC1)C(=O)Nc1ccccc1Cl
i | COc1ccc2c(c1)c(CC(=O)NCCCCNC(=O)c1ccc(F)cc1)c(C)n2C(=O)c1ccc(Cl)cc1
i | Cc1sc2ncnc(SCC(=O)Nc3nsc(-c4ccc(Cl)cc4)n3)c2c1C
i | COc1cc2[nH]c3c(=O)n(CCC(=O)NCc4ccc(Cl)cc4)cnc3c2cc1OC
i | O=C(NCCC(O)c1ccoc1)C(=O)Nc1ccc(F)c(Cl)c1 (centres undefined)
i | Cc1cc(OCCCC(=O)NCC(C)C)ccc1Cl
i | CCOc1ccc2cccc(NC(=O)c3ccc(Cl)s3)c2n1
i | O=C(C1CC(=O)N(c2ccc(Cl)cc2)C1)N1CCC(CSC2=NCCS2)CC1 (centres undefined)
i | O=C(Cc1ccc(Cl)cc1)NNC(=O)c1ccc(=O)n(Cc2ccc(Cl)cc2)c1
i | O=C(CSc1nnc2scc(-c3ccc(Cl)cc3)n12)NCC1CCCO1 (centres undefined)
i | O=C(CN1CCN(c2ccc(F)c(F)c2)C1=O)N1CCN(c2ccccc2Cl)CC1
i | N#Cc1ccc(NC(=O)Cn2nc3c4cc(-c5ccc(Cl)cc5)nn4ccn3c2=O)cc1
i | O=C(CNS(=O)(=O)c1c(Cl)cccc1Cl)N1CCCC1
i | COc1ccc(-c2nc(-c3cn(CC(=O)Nc4cc(Cl)ccc4C)cn3)no2)cc1

# An excerpt; rates above refer to the full screens.
